High-throughput results deposited in PubChem by National Center for Advancing Translational Sciences (NCATS).
D2 ag: activates the human D2 dopamine receptor | activation, % (test concentration not listed) | DiscoveRx PathHunter D2 beta-arrestin, luminescence, 90 min; 100% = 57 uM dopamine signal | P14416 | 360,000 compounds, 0.084% hits | AID 624465; in the data active = activation above about 40%; inconclusive = about 15% to 40%; inactive = below about 15%; also: compound concentration not given in the record; the text of the record calls up to 30% inactive
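DiscoveRx PathHunter D2 beta-arrestin cells (2,100/well) attached overnight, then compound-stimulated 90 min at 37 C in HBSS/10 mM HEPES/0.1% Tween-20 buffer; beta-galactosidase complementation read by luminescence after 1 h at ambient temperature. Dopamine 57 uM final (EC100) as control.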
gsp antag: antagonizes gsp, the McCune-Albright syndrome mutation; Potency, µM (series often up to 76.9 µM), for inactives: at the top dose activity change, negative = inhibition, usual class: inhibitors; 340,000 compounds, 0.4% hits; gsp-mutant cells, cAMP HTRF, 30 min; control for the full effect not named in the record; active = falling curve of any shape with a large fitted effect; inconclusive = falling curve, mostly with a smaller effect; inactive = flat or rising curve; cell line not stated here;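 also: intracellular cAMP measured with PDE inhibitor Ro 20-1724 present during compound exposure; potency is read from the fitted curve at half-maximal effect; % is scaled to controls: 0 for no effect and ±100 for the full control effect; nearly all actives have a fitted effect of over 65% in size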
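HTRF cAMP read-out (cAMP-d2 plus anti-cAMP antibody-K in lysis buffer, 30 min RT). Before lysis, cells are exposed to compounds with […] for 30 min at 37C in DPBS containing Ca/Mg, BSA and Tween 20.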
D2 potentiator: positive allosteric modulators of human D2 dopamine receptor. potentiation, % (concentration not given with the values). DiscoveRx D2 beta-arrestin cells, luminescence, 90 min; 100% = 57 uM dopamine signal. P14416. 360,000 compounds, 0.23% hits; active = potentiation of 50% or more; inconclusive = 30% to 50%; inactive = 30% or less;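 also: tested on top of an EC20 dose of dopamine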
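PathHunter D2 cells, attached overnight at 37 deg C, received compound in DMSO plus dopamine at EC20 (50 nM final) for 90 min at 37 deg C. Beta-arrestin recruitment was read as luminescence after 1 h with detection reagent at ambient temperature.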
gsp ag: agonists of gsp mutant (McCune-Albright syndrome). gsp mutant cells, cAMP HTRF, 30 min; control for the full effect not named in the record. Potency, µM (titrated, usually from 76.9 µM), for the others: top-dose activation (cAMP increase), usual class: activators. 340,000 compounds, 0.13% hits. AID 624287; active = well fitted activation curve with a large enough effect; inconclusive = small, poorly fitted or top-dose-only effect, or another doubt; inactive = no such curve, though single readings can be large or run the other way; cell line not stated here;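 also: phosphodiesterase inhibitor Ro 20-1724 added with compounds to block cAMP breakdown; potency is read from the fitted curve at half-maximal effect; nearly all actives have a fitted effect of over 60% in size; about a fifth of the inactives were tested at one dose only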
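Cells stably selected in G418 were plated at 2000/well, grown 16-24 hr, then given compounds in DMSO with the PDE inhibitor […] (300 uM solution added) for 30 min at 37C; cAMP was read by HTRF.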
Six1-Eya2 blk: blocks human Six1 binding to Eya2. AlphaScreen GST-Six1/His-Eya2 binding, biochemical; hits give low values; control for the full effect not named in the record. activity change, % (concentration not given with the values). 360,000 compounds, 0.56% hits; in the data active = activity change below about -65%; inconclusive = about -30% to -65%; inactive = above about -30%; also: % is scaled to controls: 0 for no effect and ±100 for the full control effect
Target sequence (O00167 whole entry, looked up): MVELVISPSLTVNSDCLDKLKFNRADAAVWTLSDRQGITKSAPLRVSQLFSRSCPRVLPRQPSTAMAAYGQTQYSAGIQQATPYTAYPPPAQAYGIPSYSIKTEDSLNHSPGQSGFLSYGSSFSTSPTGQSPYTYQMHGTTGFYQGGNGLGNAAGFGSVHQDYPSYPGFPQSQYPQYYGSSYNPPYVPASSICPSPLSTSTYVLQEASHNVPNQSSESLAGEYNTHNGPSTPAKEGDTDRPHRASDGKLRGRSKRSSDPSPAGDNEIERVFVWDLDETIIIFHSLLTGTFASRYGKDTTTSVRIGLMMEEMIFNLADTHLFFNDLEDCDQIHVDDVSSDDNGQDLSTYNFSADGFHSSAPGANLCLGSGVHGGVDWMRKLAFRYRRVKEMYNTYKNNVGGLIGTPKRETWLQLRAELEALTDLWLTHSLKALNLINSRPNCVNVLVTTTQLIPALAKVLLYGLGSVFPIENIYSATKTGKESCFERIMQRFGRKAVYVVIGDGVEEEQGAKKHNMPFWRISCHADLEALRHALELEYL
Target sequence (Q15475 whole entry, looked up): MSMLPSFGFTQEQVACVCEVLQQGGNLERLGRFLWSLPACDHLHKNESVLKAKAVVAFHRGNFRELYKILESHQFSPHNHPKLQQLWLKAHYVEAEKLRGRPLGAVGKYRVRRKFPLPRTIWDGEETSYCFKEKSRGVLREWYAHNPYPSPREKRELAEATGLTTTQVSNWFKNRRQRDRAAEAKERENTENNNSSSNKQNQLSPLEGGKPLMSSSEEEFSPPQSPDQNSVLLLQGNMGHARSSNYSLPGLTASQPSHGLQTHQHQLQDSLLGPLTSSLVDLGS
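Six1/Eya2 binding was read as AlphaScreen signal after compounds were pinned into GST-Six1 plus His-tagged Eya2 (5X stock 250/500 nM) in pH 8.0 Tris/NaCl/TCEP buffer, beads added, then incubated 1 h, 37 C, dark.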
CtBP-E1A blk: inhibitors of CtBP/E1A interaction; AlphaScreen GST-E1A/His-CtBP binding, 1536-well; hits give low values; control for the full effect not named in the record; activity change, % (no concentration beside the values); 340,000 compounds, 0.49% hits; in the data active means activity change below about -65%; inconclusive means about -30% to -65%; inactive means above about -30%; also: % is scaled to controls: 0 for no effect and ±100 for the full control effect
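Homogeneous bead-based format: GST-tagged E1A captured on glutathione donor beads, His-tagged CtBP on nickel acceptor beads; compounds precede bead addition by 2 h at 37 °C.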
Active calls of the source: *; ? = inconclusive; . = not tested or not shown; [ ] = another dose, or the depositor's remark.

nr	D2 ag	gsp antag	D2 potentiator	gsp ag	Six1-Eya2 blk	CtBP-E1A blk	Molecule
1	-2.6	-5%	-3	-32%[inhibitor]	-1	1	CCOC(=O)c1[nH]c(C)c(CN(CCc2ccc(OC)c(OC)c2)C(=O)CCCC(=O)O)c1C
2	0.3	?	-6	-1%	-7	-9	O=c1oc2ccccc2cc1-c1csc(NN=C2CCCCC2)n1
3	-2.7	-1%	-5	2%	9	-1	N/C(=N\S(=O)(=O)c1cccs1)c1ccccc1
4	-6.2	-3%	-5	4%	4	1	CN1C(=O)C(C)(C)c2cc(S(=O)(=O)NCC(=O)NCc3ccccc3)ccc21
5	4.8	6%	-7	0%	1	.	Cc1cc(OCCN2CCOCC2)ccc1Cl
6	1.1	-12%	-8	6%	3	26	Cc1ccc(N/C=C/C(=O)c2cccs2)cc1C
7	-0.9	?	2	-22%	-18	-13	O=C(COc1ccccc1Cl)N1CCN(c2ccc([N+](=O)[O-])c(N3CCCCC3)c2)CC1
8	3.7	8%	-13	-37%	0	.	CCN(CC)S(=O)(=O)c1ccc(N2CCOCC2)c(NC(=O)CNCCc2ccccc2)c1
9	2.3	-19%	-6	6%[15.4 µM]	5	23	Cc1ccc(N(C(=O)c2ccco2)C(C(=O)NC2CCCC2)c2cccnc2)cc1C (configuration not stated)
10	-3.4	6%	-6	25%	-2	1	Cc1cccn2c(CN3CCSCC3)c(C(=O)N3CCOCC3)nc12
11	-2.4	?	-15	11%	-2	5	Cc1ccc(C)c(S(=O)(=O)/N=C(/Nc2ccccc2)c2ccccc2)c1
12	-4.0	15%	-1	-6%[15.4 µM]	-4	-4	Cn1cccc1CC(=O)N/N=C\c1ccccc1
13	-0.5	-3%	-14	4%	8	.	CC(C)(C)c1ccc(C(=O)N2CCCC2)s1
14	-4.2	-36%	-7	28%[15.4 µM]	-24	2	COc1cc(NC(=O)c2cc([N+](=O)[O-])ccc2NC(=O)CNC2CCCCC2C)cc(OC)c1 (configuration not stated)
15	1.9	-11%	-6	15%[15.4 µM]	-1	0	COCCn1c(SCc2cc(=O)n3ccsc3n2)nnc1-c1ccncc1
16	1.7	4%	-4	2%	-6	-12	O=C(CCn1cccc1)NCc1ccc2c(c1)OCO2
17	-1.1	-15%	-10	4%[15.4 µM]	-8	12	O=C(Nc1nc2ccccc2s1)C1c2ccccc2Oc2ccccc21
18	3.3	10%	-11	13%	6	6	CC1=C(C#N)C(NC(=O)C2CCCCC2)(C(F)(F)F)C(=O)N1 (configuration not stated)
19	1.5	-2%	-5	5%	6	9	Cc1cc(NC(=O)COC(=O)c2ccccc2[N+](=O)[O-])no1
20	-2.9	-9%	-25	-29%	-8	7	O=C(CNCc1ccc(Cl)cc1)Nc1cc(S(=O)(=O)N2CCCC2)ccc1Cl
21	-5.8	17%	-17	-43%[inhibitor]	13	.	O=C(CS(=O)(=O)c1ccc(Cl)cc1)NCc1ccccc1
22	-4.3	11%	-8	4%[15.4 µM]	-14	-3	Cc1ccc(-n2nnnc2SCC(=O)Nc2ncc(Cc3ccccc3Cl)s2)cc1
23	-2.0	-7%	0	-4%	2	1	CS(=O)(=O)N(CC(=O)N1CCN(c2ccccc2F)CC1)C1CCCCC1
24	-6.6	6%	-15	10%	-16	0	CS(=O)(=O)Nc1ccccc1C(=O)Nc1cc2c(cc1C(=O)O)OCCCO2
25	-4.3	18%	-19	3%[15.4 µM]	-14	-5	CC(C)c1ccc(-c2csc3ncnc(N4CCN(C)CC4)c23)cc1
26	-2.6	3%	-2	-39%[inhibitor]	-7	.	Cn1c(SCc2ccccc2F)nnc1-c1ccccn1
27	-4.3	-8%	-5	7%[15.4 µM]	4	5	CCCCCCCCNC1=CC(=O)CC(C)(C)C1
28	-4.9	-26%	1	?	15	3	CC1CCC(NC(=O)CNC(=O)c2cccs2)CC1 (configuration not stated)
29	-4.5	13%	3	13%[15.4 µM]	8	1	COCCOc1cc(N)c(Cl)cc1Cl
30	-5.4	-2%	-11	2%	-1	-24	COc1ccc(C(=O)NCC(c2cccnc2)N2CCN(c3ccccc3OC)CC2)cc1OC (configuration not stated)
31	-7.8	8%	1	6%[15.4 µM]	-2	0	O=C(c1c[nH]c2ccccc2c1=O)N1CCCCCC1
32	-0.9	2%	-2	?	7	-2	O=C(NCCNC(=O)c1ccc(F)cc1)c1ccc(F)cc1
33	-2.7	9%	-14	27%	1	9	CCC1CC2CC(NC(C)=O)C1C2 (configuration not stated)
34	-6.4	-5%	-7	?	-4	-8	COc1ccc(C)cc1-n1c(SCC(=O)Nc2cccc(C(=O)O)c2)nc2ccccc2c1=O
35	-11	-10%	-3	1%[15.4 µM]	0	8	O=C(c1ccco1)N1CCN(c2cc(N3CCOCC3)c(F)cc2[N+](=O)[O-])CC1
36	-3.5	4%	10	-30%[inhibitor]	12	0	CN1/C(=C\C(=O)Nc2ccc(Br)cc2)C(C)(C)c2ccccc21
37	2.0	-19%	-10	7%[15.4 µM]	-14	0	CCOC(=O)N1CCC(=NNc2ccnc3cc(Cl)ccc23)CC1
38	-2.6	2%	-4	.	0	1	CN(C(=O)c1ccc(NC(=O)Cc2ccc(NC(=O)C3CCCN(C(=O)C4CCC4)C3)cc2)cc1)C1CC1 (configuration not stated)
39	0.1	5%	-4	0%	7	.	CN(Cc1ccccn1)C(=O)C1CCC(=O)N(Cc2cccc(F)c2)C1 (configuration not stated)
40	-3.4	8%	-8	-1%	-13	-16	O=C(CN1CCN(c2ccc(F)cc2)CC1)OCc1ccccc1
41	-0.2	50µM*	10	10%	-3	-1	O=C(COc1cccnc1[N+](=O)[O-])N1CCN(S(=O)(=O)c2ccccc2)CC1
42	-0.1	8%	-6	6%	-3	0	CCc1ccc(/C=N/NC(=S)NCCc2ccccc2)cc1
43	3.8	-16%	-15	-7%[15.4 µM]	2	17	O=C(c1ccc2oc(CCCc3ccccc3)nc2c1)N1CCCC1
44	-0.4	-2%	5	?	4	5	COC(=O)CCC(=O)Nc1ccc(OC)cc1
45	-3.8	-27%	-15	-1%	23	2	CC(Oc1ccc2ccccc2c1)C(=O)NNC(=O)Nc1ccccc1 (configuration not stated)
46	0.0	-2%	2	-17%	1	-4	CCN(CC(=O)Nc1ccc2c(c1)OCCO2)C(=O)c1ccc(C)c(S(=O)(=O)N2CCOCC2)c1
47	0.0	-2%	8	4%	3	5	CCOC(=O)N1CCN(C(=O)C(CC(C)C)NS(=O)(=O)c2ccc3c(c2)oc(=O)n3C)CC1 (configuration not stated)
48	-2.2	-10%	0	-32%[inhibitor]	3	-1	CCCCCc1nnc(NC(=O)CS(=O)(=O)Cc2ccccc2)s1
49	-2.8	-12%	-7	0%	-3	-11	COc1ccccc1-c1noc(-c2ccccc2C(=O)Nc2cccnc2)n1
50	0.5	32µM*	9	1%	2	-2	CC(C)(C)c1ccc(C(=O)CCC(=O)OCC(=O)NCCc2ccc(S(N)(=O)=O)cc2)cc1

Arranged by number of heavy atoms (rising): part of the list above
nr	D2 ag	gsp antag	D2 potentiator	gsp ag	Six1-Eya2 blk	CtBP-E1A blk	Molecule
37	2.0	-19%	-10	7%[15.4 µM]	-14	0	CCOC(=O)N1CCC(=NNc2ccnc3cc(Cl)ccc23)CC1
43	3.8	-16%	-15	-7%[15.4 µM]	2	17	O=C(c1ccc2oc(CCCc3ccccc3)nc2c1)N1CCCC1
39	0.1	5%	-4	0%	7	.	CN(Cc1ccccn1)C(=O)C1CCC(=O)N(Cc2cccc(F)c2)C1 (configuration not stated)
41	-0.2	50µM*	10	10%	-3	-1	O=C(COc1cccnc1[N+](=O)[O-])N1CCN(S(=O)(=O)c2ccccc2)CC1

The listing picks up, repeating the four entries before the break.
nr	D2 ag	gsp antag	D2 potentiator	gsp ag	Six1-Eya2 blk	CtBP-E1A blk	Molecule
47	0.0	-2%	8	4%	3	5	CCOC(=O)N1CCN(C(=O)C(CC(C)C)NS(=O)(=O)c2ccc3c(c2)oc(=O)n3C)CC1 (configuration not stated)
48	-2.2	-10%	0	-32%[inhibitor]	3	-1	CCCCCc1nnc(NC(=O)CS(=O)(=O)Cc2ccccc2)s1
49	-2.8	-12%	-7	0%	-3	-11	COc1ccccc1-c1noc(-c2ccccc2C(=O)Nc2cccnc2)n1
50	0.5	32µM*	9	1%	2	-2	CC(C)(C)c1ccc(C(=O)CCC(=O)OCC(=O)NCCc2ccc(S(N)(=O)=O)cc2)cc1
51	-3.3	1%	-7	-5%	5	-11	Cc1ccc(NS(=O)(=O)c2cccc(C(=O)NNC(=O)c3ccco3)c2)c(C)c1
52	-2.8	7%	-4	0%	1	-3	Nc1nncn1C(=O)c1cccs1
53	2.0	6%	13	.	24	1	CC(=O)C[C@H](O)CC(=O)[C@H]1OC(=O)[C@H](C)CCCCc2ccccc21
54	-2.0	5%	0	-21%	1	17	CS(=O)(=O)N(CC(=O)Nc1ccc(F)c(F)c1)c1cccc([N+](=O)[O-])c1
55	-2.1	.	-1	.	-7	1	O=C(NCCCn1ccnc1)c1[nH]c(C(F)(F)F)nc1-c1ccccc1
56	0.3	3%	5	-7%	18	14	CCC(C(=O)N1CCc2cc(OC)c(OC)cc2C1)c1ccccc1 (configuration not stated)
57	2.7	8%	-21	16%	3	2	OC(CN1CCCCC1)Cn1c(C(F)(F)F)nc2ccccc21 (configuration not stated)
58	2.3	-8%	-9	2%	12	-8	Cc1ccccc1/C=N/Nc1nc2ccccc2[nH]1
59	2.5	6%	-8	4%	0	.	COc1ccc(NC(=O)c2cccnc2N2CCOCC2)cc1
60	-3.1	-4%	2	-14%	1	9	COC(C(=O)N1CCC(CCC(=O)Nc2ccccc2)CC1)c1ccccc1 (configuration not stated)
61	-1.7	4%	10	-50%[inhibitor]	?	?	COc1ccc2nc(SCC(=O)Nc3ccc(S(=O)(=O)Nc4onc(C)c4C)cc3)[nH]c2c1
62	6.6	3%	6	30%	?	-19	O=C(CSc1ccccc1)Nc1ccc(-c2nc3ccccc3[nH]2)cc1

Records listed above shown as hits in gsp antag.
nr	D2 ag	gsp antag	D2 potentiator	gsp ag	Six1-Eya2 blk	CtBP-E1A blk	Molecule
41	-0.2	50µM*	10	10%	-3	-1	O=C(COc1cccnc1[N+](=O)[O-])N1CCN(S(=O)(=O)c2ccccc2)CC1
50	0.5	32µM*	9	1%	2	-2	CC(C)(C)c1ccc(C(=O)CCC(=O)OCC(=O)NCCc2ccc(S(N)(=O)=O)cc2)cc1
